# eIF4H inh – inhibitors of RNA binding by human eIF4H. Q15056. inhibition, % at 35 µM. eIF4H fluorescence polarization binding assay. actives 0.94% (n = 290,000);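 note: calls also rest on retests at 20 µM and on dose response follow-up; 0% = protein and probe with vehicle and 100% = probe without protein; strong numbers were not always called active; many hits fall short of the cut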
# PABP polyA inh – blocks human PABP binding to poly(A) RNA | P11940 | fluorescence polarization | inhibition, % at 35 µM | actives 1% (n = 290,000) | AID 2014;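 note: calls also rest on retests at 20 µM and on dose response follow-up; controls were probe without protein and protein plus probe with vehicle; some compounds called inactive have numbers as strong as hits; many hits fall short of the cut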
# Target sequence (P11940 whole entry, looked up): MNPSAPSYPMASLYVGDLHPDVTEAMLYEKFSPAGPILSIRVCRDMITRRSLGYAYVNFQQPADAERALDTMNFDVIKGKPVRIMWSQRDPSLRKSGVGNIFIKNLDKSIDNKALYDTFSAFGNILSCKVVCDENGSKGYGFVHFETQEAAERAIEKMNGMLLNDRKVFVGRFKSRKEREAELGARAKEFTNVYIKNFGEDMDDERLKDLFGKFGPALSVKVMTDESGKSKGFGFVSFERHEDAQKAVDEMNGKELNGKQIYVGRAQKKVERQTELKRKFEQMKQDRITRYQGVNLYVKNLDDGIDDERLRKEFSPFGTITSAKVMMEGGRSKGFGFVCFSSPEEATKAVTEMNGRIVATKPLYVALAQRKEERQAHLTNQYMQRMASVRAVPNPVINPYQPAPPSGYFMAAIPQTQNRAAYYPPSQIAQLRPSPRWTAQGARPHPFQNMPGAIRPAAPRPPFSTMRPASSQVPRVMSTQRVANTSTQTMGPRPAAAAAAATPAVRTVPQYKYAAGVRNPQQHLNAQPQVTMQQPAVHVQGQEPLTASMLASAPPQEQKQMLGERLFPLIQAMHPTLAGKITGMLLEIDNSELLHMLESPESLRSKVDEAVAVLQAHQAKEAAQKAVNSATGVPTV
# eIF4H inh retest – further read-out of eIF4H inh, marked with its call; inhibition, %; compound at 20 µM; confirmation average;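 mean of two retest wells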
# PABP polyA inh retest – recorded beside PABP polyA inh, whose call it bears; inhibition, %; compound at 20 µM; confirmation repeats;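 mean of two retest wells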
# Active calls of the source: *; ? = inconclusive.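 Rule for the calls: active = 50% or more with normal probe brightness, or confirmed in later tests; inconclusive = above 50% with abnormal brightness, or retests that disagree; inactive = below 50% or failed in later tests; about a fifth of its hits are not listed in these tables.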
# The first 6 records (preview)
SMILES,eIF4H inh,PABP polyA inh,others
Cc1ccc(-c2nn3c(-c4cccc(Cl)c4)nnc3s2)cc1,-8,-19,
CC1CCCCN1C(=O)Cn1cc(/C=C2/C(=O)Nc3ccccc32)c2ccccc21 (stereo unspecified),-2,6,
CC(C)Sc1nc(-c2cccs2)nc2c1c(=O)n(C)c(=O)n2C,-13,2,
O=C(N/N=C/c1ccc(Cl)cc1Cl)C1CCN(c2ncc(C(F)(F)F)cc2Cl)CC1,3,-4,
CCN1C(=S)SC(=O)C1=C1C=C(C)N(CCOC)C(C)=C1,1,19,
CCSc1nc2c(sc3nc(C)cc(C)c32)c(=O)[nH]1,-1,-3,

# The whole of this part (from the top)
SMILES,eIF4H inh,PABP polyA inh,others
Cc1ccc(-c2nn3c(-c4cccc(Cl)c4)nnc3s2)cc1,-8,-19,
CC1CCCCN1C(=O)Cn1cc(/C=C2/C(=O)Nc3ccccc32)c2ccccc21 (stereo unspecified),-2,6,
CC(C)Sc1nc(-c2cccs2)nc2c1c(=O)n(C)c(=O)n2C,-13,2,
O=C(N/N=C/c1ccc(Cl)cc1Cl)C1CCN(c2ncc(C(F)(F)F)cc2Cl)CC1,3,-4,
CCN1C(=S)SC(=O)C1=C1C=C(C)N(CCOC)C(C)=C1,1,19,
CCSc1nc2c(sc3nc(C)cc(C)c32)c(=O)[nH]1,-1,-3,
CCn1c(CSc2nnc(-c3cccnc3)n2-c2ccccc2C)nc2cc(C(=O)O)ccc21,50,48,
CCN(CC)c1ncnc2c1sc1nc(N3CCOCC3)c3c(c12)CCC3,0,13,
Cc1cc(C)cc(NC(=O)c2snc3c(=O)[nH]cnc23)c1,-4,-5,
c1ccc(-c2cc(-c3nc(-c4cccnc4)no3)c3ccccc3n2)cc1,0,10,
CCCCCCC(=O)Cc1cc(OC)c(OC)cc1C=C(C(=O)OCC)C(=O)OCC,-10,-16,
CCOc1ccc(-c2nn3c(-c4ccc(OC)cc4)nnc3s2)cc1,3,0,
Cn1c(=O)c2c(nc(SCc3cc4c(cc3Cl)OCO4)n2C)n(C)c1=O,2,-2,
COc1ccc2[nH]c3c(c2c1)CCn1c-3nc2sc(C(=O)Nc3ccccc3)c(C)c2c1=O,0,14,
Cc1nn(S(=O)(=O)c2cccs2)c(C)c1Sc1ccccc1,11,-4,
Cc1cccn2c(=O)c3cc(C(=O)NCc4cccnc4)c(=N)n(C)c3nc12,-4,3,
N#CC(C(=O)NC1CCCCC1)c1nc2ccccc2nc1N1CCOCC1 (stereo unspecified),9,37,
CC12CC(NC(=O)N1c1ccc(C(=O)N3CCN(c4ccccn4)CC3)cc1)c1ccccc1O2 (stereo unspecified),-4,4,
CCn1cc(C(=O)NC2CCC(C)CC2)c(=O)c2cc(S(=O)(=O)N3CCCCC3)ccc21 (stereo unspecified),-6,3,
Cc1ccc2oc3c(c(=O)c2c1)C(c1ccc(F)cc1)N(CCCN1CCOCC1)C3=O (stereo unspecified),-2,-8,
CCCn1c(=O)c(C(=O)Nc2nnc(CC)s2)c(O)c2ccccc21,11,-2,
CCOC(=O)c1c(C)oc2c1c(C(c1cccnc1)N1CCN(C)CC1)c(O)c1ccccc12 (stereo unspecified),6,17,
CC(=O)c1ccc(Nc2nc(C)nc3c2oc2ccccc23)cc1,-9,-3,
Cc1c(C(=O)NCc2ccccc2Cl)oc2c1C(=O)CCC2,5,4,
Cc1ccc2nc3c(cc(C(=O)NCC4CCCO4)n3C)c(=O)n2c1 (stereo unspecified),-6,-2,
Cc1cc(Cl)ccc1N=Cc1c(O)n(C)c(=O)n(C)c1=O,-7,-2,
COc1ccc(OC)c2c1sc(=NC(=O)CN1C(=O)CCC1=O)n2C,0,-1,
CCOc1ccc2[nH]c(=O)c(CN(C(=O)N3CCOCC3)C3CC3)cc2c1,-7,-6,
CCC(O)CNc1nc(-n2nc(C)cc2C)nc2sc3c(c12)CCCC3 (stereo unspecified),9,2,
NC(=O)C(CC(=O)O)NC(=O)[C@@H]1CCCCNc2c(I)cc([N+](=O)[O-])cc2C(=O)N[C@@H](CO)C(=O)NCC(=O)N1 (stereo partly specified),91,?,eIF4H inh retest=-7
Cc1ccc(O)c(/C=N/NC(=O)C2=NNC(c3ccccc3)(c3ccccc3)C2)c1,5,-3,
Cc1nn(-c2ccc(Cl)cc2)c2sc(C(=O)N3CCN(C(=O)c4ccco4)CC3)cc12,-3,8,
C=CCN(C)CCCNC(=O)/C=N/O,2,-12,
CCOC(=O)c1sc(NC(=O)CSc2nc3c(c(=O)n2-c2ccccc2)SCC3)c(C(=O)OCC)c1C,-10,-5,
C/C(=C\c1ccccc1)CN(C)CCN(C)C,11,12,
COC(=O)c1ccc(Cl)c(NC(=O)c2ccc(-c3ccccc3)cc2)c1,2,2,
COc1ccc(C(c2nnnn2C2CCCCC2)N2CCN(c3ccccc3)CC2)cc1 (stereo unspecified),-3,-2,
Cc1cc(C)n2cc(CSc3nnc(SCc4cn5c(C)cc(C)nc5n4)s3)nc2n1,-9,-3,
CCOC(=O)c1ccc(NC(=O)c2c(O)c3ccccc3n(C)c2=O)cc1,-8,-3,
C#CCOCCOCCOCCNc1nc(N2CCN(C(=O)Cn3cc(CCCN=C(N)N)nn3)CC2)nc(N2CCN(C(=O)Cn3cc(CCCN=C(N)N)nn3)CC2)n1,21,1,

# Grouped by structure: those above containing an aryl thioether with sulfur outside any ring (seven)
SMILES,eIF4H inh,PABP polyA inh,others
CC(C)Sc1nc(-c2cccs2)nc2c1c(=O)n(C)c(=O)n2C,-13,2,
CCSc1nc2c(sc3nc(C)cc(C)c32)c(=O)[nH]1,-1,-3,
CCn1c(CSc2nnc(-c3cccnc3)n2-c2ccccc2C)nc2cc(C(=O)O)ccc21,50,48,
Cn1c(=O)c2c(nc(SCc3cc4c(cc3Cl)OCO4)n2C)n(C)c1=O,2,-2,
Cc1nn(S(=O)(=O)c2cccs2)c(C)c1Sc1ccccc1,11,-4,
CCOC(=O)c1sc(NC(=O)CSc2nc3c(c(=O)n2-c2ccccc2)SCC3)c(C(=O)OCC)c1C,-10,-5,
Cc1cc(C)n2cc(CSc3nnc(SCc4cn5c(C)cc(C)nc5n4)s3)nc2n1,-9,-3,

# (continued)
SMILES,eIF4H inh,PABP polyA inh,others
CCOC(=O)c1c(-c2ccc(C)s2)csc1NC(=O)c1ccco1,2,-6,
Cc1ccnc(NC(=O)CCC(=O)N(CC(=O)NC2CCCCC2)Cc2ccc3c(c2)OCO3)c1,5,-15,
CCN(C(=O)CN1CCCc2ccccc21)c1c(N)n(Cc2ccccc2)c(=O)[nH]c1=O,99*,109*,eIF4H inh retest=94*;PABP polyA inh retest=62*
CCCSc1nc(C)nc2c1c(=O)n(C)c(=O)n2C,4,-1,
CCN1CCN(Cc2nc3c(c(=O)n(C)c(=O)n3C)n2CCCc2ccccc2)CC1,4,-4,
C=CCn1cnc2c(c1=O)c1nc3ccccc3nc1n2-c1ccccc1,-1,6,
Cc1cc(C)nc(-n2nc(C)cc2NC(=O)c2ccc3c(c2)OCO3)n1,-7,-5,
Cc1ccc(C2CC(=O)c3cnc(N4CC(C)CC(C)C4)nc3C2)cc1 (stereo unspecified),-8,1,
Cc1ccc(C2/C(=C(\O)c3ccc4c(c3)OCCO4)C(=O)C(=O)N2CCCN(C)C)o1 (stereo unspecified),-6,-1,
Cc1cc(C)nc(N(C#N)S(=O)(=O)c2ccc(Br)cc2)n1,-1,12,
COc1ccc(C2C=C(c3ccc(Cl)cc3)Nc3nc(NC(C)=O)nn32)cc1 (stereo unspecified),38,56,eIF4H inh retest=35;PABP polyA inh retest=43
CCCc1nc2oc3c(N4CCNCC4)ncnc3c2c2c1CCCC2,-7,-6,
N#Cc1cc2c(=O)n3ccccc3nc2n(CCN2CCOCC2)c1=O,7,0,
CCOc1cc(NC(=O)c2ccco2)c(OCC)cc1NC(=O)CCc1ccc(OC)cc1,-3,3,
COc1ccc(C)cc1NC(=O)c1cc2cc3ccc(C)cc3nc2o1,-4,7,
O=C(O)c1cccc(N2C(=O)CCC2=O)c1,-7,-13,
COc1cc2nc(CN3CCN(c4ncc(C(F)(F)F)cc4Cl)CC3)[nH]c(=O)c2cc1OC,9,0,
O=c1c2cccc3c(N4CCOCC4)ccc(c32)c2nc3ccccc3n12,122,122*,eIF4H inh retest=42;PABP polyA inh retest=72*
CCCn1c(=O)c2ccccc2n2c(SCN3C(=O)c4ccccc4C3=O)nnc12,-14,0,
CCOC(=O)N1CCN(c2ncnc3c2oc2nc(C)c4c(c23)CC(C)(C)OC4)CC1,-5,2,
Cc1nnc2n(C3CCCCC3)c(=O)c3c4c(sc3n12)CCC4,1,11,
COc1ccc(O[C@H]2C=C[C@@H](c3ccccc3)O[C@@H]2COC(=O)CC/C(C)=N/O[C@@H](C)c2cn([C@H](CO)Cc3ccccc3)nn2)cc1,0,-3,
COC(=O)c1[nH]c2cc(OC)c(OC)cc2c1NC(=O)CN1CCN(Cc2ccccc2)CC1,-7,2,
Cc1cc(NC(=O)CSc2ncnc3sc4c(c23)CCC(C)C4)no1 (stereo unspecified),3,-8,
CCc1nc(SCC(=O)N2CCC(Cc3ccccc3)CC2)c2c(=O)n(C)c(=O)n(C)c2n1,-4,-13,
CCn1cnc2sc(C)c(C)c2c1=O,-7,7,
CCc1nc2c(sc3nc(N4CCOCC4)c4c(c32)CC(C)(C)OC4)c(=O)o1,-3,0,
Cc1ccc(S(=O)(=O)N2CCOCC2)cc1C(=O)OCC(=O)N1c2ccccc2NC(=O)C1(C)C,-9,7,
COc1ccc2[nH]c(=O)c(CN(C(=O)C3CCCO3)c3cccc(C)c3)cc2c1 (stereo unspecified),-9,3,
COc1ccc(Cn2c3nc4ccccc4nc3c3c(=O)n(Cc4ccco4)c(C)nc32)cc1,54*,36*,eIF4H inh retest=77*;PABP polyA inh retest=71*
Clc1ccc(-c2nn3c(-c4ccccn4)nnc3s2)c(Cl)c1,0,-6,
CCOC(=O)c1cnn(-c2nc3sc4c(c3c(=O)[nH]2)CCCC4)c1N,15,6,
COc1ccc(OC)c(NC(=O)CSc2nc3ccccc3c3nc4ccccc4n23)c1,10,42,
COC(=O)c1[nH]c(C)c(/C(O)=C2\C(=O)C(=O)N(CCN(C)C)C2c2ccc(OC)cc2)c1C (stereo unspecified),-9,10,
CC(C)Cc1nc(N2CCN(C(=O)Cc3ccccc3)CC2)c(C#N)c2c1COC(C)(C)C2,2,0,
Cc1nc(SCn2nnc3ccccc3c2=O)c2c(C)c(C)sc2n1,-7,-1,
CCc1nnc(NC(=O)c2c(O)c3cccc4c3n(c2=O)CC4)s1,4,-5,
Cc1cc(C)c2c(n1)nn1c(NCCCn3ccnc3)cc(C)nc21,-3,-14,
Cc1ccc(N2CCN(c3cc(C)nc4c5c(C)cc(C)nc5nn34)CC2)cc1,10,-2,
COCCn1c(=O)c2c(nc3n2CCN3c2ccc(C)cc2)n(C)c1=O,-4,0,
CC(=O)c1cnc(Nc2nc(C)c3cccc(C)c3n2)nc1C,-3,-4,

# Looked up by compound from the entries so far (six):
SMILES,eIF4H inh,PABP polyA inh,others
COc1ccc(Cn2c3nc4ccccc4nc3c3c(=O)n(Cc4ccco4)c(C)nc32)cc1,54*,36*,eIF4H inh retest=77*;PABP polyA inh retest=71*
CC(C)Cc1nc(N2CCN(C(=O)Cc3ccccc3)CC2)c(C#N)c2c1COC(C)(C)C2,2,0,
Cc1nc(SCn2nnc3ccccc3c2=O)c2c(C)c(C)sc2n1,-7,-1,
Cc1cc(NC(=O)CSc2ncnc3sc4c(c23)CCC(C)C4)no1 (stereo unspecified),3,-8,
Cc1ccc(S(=O)(=O)N2CCOCC2)cc1C(=O)OCC(=O)N1c2ccccc2NC(=O)C1(C)C,-9,7,
COc1ccc(O[C@H]2C=C[C@@H](c3ccccc3)O[C@@H]2COC(=O)CC/C(C)=N/O[C@@H](C)c2cn([C@H](CO)Cc3ccccc3)nn2)cc1,0,-3,

# An excerpt (hit frequency here may not be typical).
